INS promoter inh – TRM-6 insulin promoter activity inhibition | TRM-6 cells (human fetal islet line), insulin promoter-eGFP reporter, imaging; reporter expression induced with tamoxifen | inhibition, % at 2 µM | 130,000 tested, 0.9% active;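 active = inhibition above the mean plus 3 SD, with well images judged a real hit on visual review, cut at about 60% in these data, passing the limit was not always enough; inconclusive = inhibition over the cutoff but images rejected on review; inactive = inhibition not above the cutoff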
HSV replic up – HSV replication enhancement; 220,000 tested, 0.005% active; maximum fold increase; HSV replication augmentation in cells, fold increase;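 active = peak rise of 1.5-fold or more in the series; inconclusive = self-fluorescent or not available for retest; tested in PC3 cells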;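 also: first round at 10 µM; read as green reporter fluorescence; hits show the peak of a series up to 25 µM; 1 = signal of infected wells without compound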
GALR2 ag – agonists of human galanin receptor 2 (GALR2); activation, %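 (tested at 5 µM)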; O43603; AID 803; 140,000 tested, 0.48% active; GALR2-expressing cells, agonist activation read-out;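 active = above mean plus 3 SD of all compounds, about 5% in these data, not always enough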;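 also: 0% = vehicle buffer wells and 100% = reference agonist at full effect; tested in CHO reporter cells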
Target sequence (O43603 whole entry, looked up): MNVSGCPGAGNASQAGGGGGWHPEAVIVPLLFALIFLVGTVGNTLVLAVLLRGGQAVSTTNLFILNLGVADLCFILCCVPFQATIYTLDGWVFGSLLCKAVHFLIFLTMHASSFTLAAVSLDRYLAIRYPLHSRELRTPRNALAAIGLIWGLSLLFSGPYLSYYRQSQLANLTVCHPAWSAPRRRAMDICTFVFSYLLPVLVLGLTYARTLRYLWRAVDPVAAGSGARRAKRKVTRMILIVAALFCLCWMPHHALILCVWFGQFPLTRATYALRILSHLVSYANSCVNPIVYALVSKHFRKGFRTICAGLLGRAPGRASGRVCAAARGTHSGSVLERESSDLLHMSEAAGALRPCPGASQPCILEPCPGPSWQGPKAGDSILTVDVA
PKD1 kinase inh – blocks activity of human protein kinase D1; 200,000 tested, 0.056% active; inhibition, %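 (about 10 µM by stock and volumes)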; PKD1 kinase fluorescence polarization assay; Q15139;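 active = inhibition of 50% or more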;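 also: controls were vehicle for no effect and a reference inhibitor for full effect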
RGS16-Gao HTS – modulates binding between human RGS16 and Galphao | binding response (% of control), % at 10 µM | 220,000 tested, 0.38% active | O15492+P09471 | bead-based flow cytometry RGS16-Galphao binding, fluorescence; actives lie on both sides;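 active = below 25% or above 175%, edge rows of some plates excepted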;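 also: Galphao activated by GDP with aluminum fluoride before binding; 100% = wells without compound and 0% = beads without RGS; some results beyond the cut were filed as inactive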
Target sequence (O15492 whole entry, looked up): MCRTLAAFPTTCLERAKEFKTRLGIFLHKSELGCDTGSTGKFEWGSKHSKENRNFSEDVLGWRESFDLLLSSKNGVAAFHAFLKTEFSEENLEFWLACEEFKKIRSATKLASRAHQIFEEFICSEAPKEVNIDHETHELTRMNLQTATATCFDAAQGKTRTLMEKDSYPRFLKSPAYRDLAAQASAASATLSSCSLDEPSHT
Target sequence (P09471 whole entry, looked up): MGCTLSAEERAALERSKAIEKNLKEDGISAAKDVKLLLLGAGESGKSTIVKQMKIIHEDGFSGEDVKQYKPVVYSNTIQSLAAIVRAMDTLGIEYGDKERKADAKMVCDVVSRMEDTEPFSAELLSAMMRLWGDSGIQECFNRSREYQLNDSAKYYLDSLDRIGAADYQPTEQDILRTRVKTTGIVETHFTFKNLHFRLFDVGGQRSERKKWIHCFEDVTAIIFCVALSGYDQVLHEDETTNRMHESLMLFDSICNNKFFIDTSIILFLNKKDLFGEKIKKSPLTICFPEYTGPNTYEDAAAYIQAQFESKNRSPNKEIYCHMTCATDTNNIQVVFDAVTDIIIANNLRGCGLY
INS promoter inh cell count – second read-out of INS promoter inh, no call of its own (marks repeat the call); normalized cell count, %; measured here: cell count, toxicity; reference of the scale not given here;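 cells exposed to compound for 48 h; stained nuclei by imaging scaled within each plate; lower means fewer cells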
HSV replic up primary fold – second read-out of HSV replic up, no call of its own (marks repeat the call); fold increase; compound at 10 µM; measured here: primary screen fold increase 10 uM; tested in PC3 cells;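 GFP signal in the first replicate; 1 = infected wells without compound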
Starred values were filed as active, the others as inactive; i = inactive; u = inconclusive; x = not tested or not shown; & = joins results of further samples. No enrichment for hits, and some 1.3% of all compounds hit somewhere here.

SMILES	INS promoter inh	INS promoter inh cell count	HSV replic up	HSV replic up primary fold	GALR2 ag	PKD1 kinase inh	RGS16-Gao HTS
COc1ccc(C2C(C(=O)OCC(=O)Nc3ccc(C)cc3)CCC(=O)N2c2ccc(OC)cc2)cc1 (stereo not drawn)	21.7	78.0	i	0.95	-0.8	-6.1	101.7
O=C(COc1ccc(Cl)cc1)N1CCN(S(=O)(=O)c2ccc(Cl)cc2)CC1	x	x	i	0.86	-1.3	1.7	104.5
Cc1ccc(CN(c2ccc(C(=O)NCC3CCCO3)cc2)S(C)(=O)=O)cc1 (stereo not drawn)	15.0	43.4	i	0.97	x	-4.2	109.8
CSc1ccccc1NC(=O)Nc1cccc(F)c1	x	x	i	1.12	x	5.3	105.0
Cc1ccc(C)c2[nH]c(=O)c(CN(CCN3CCOCC3)Cc3nnnn3CC3CCCO3)cc12 (stereo not drawn)	-18.2	57.8	i	0.94	-1.2	-9.5	97.3
O=c1oc2ccccc2c(Nc2ccccc2O)c1[N+](=O)[O-]	x	x	i	0.72	x	-1.8	104.4
FC(F)Sc1ccc(-n2cc(-c3ccccc3)[n+]3c2CCC3)cc1	-78.6	93.3	i	0.98	-2.1	-2.8	102.5
Cc1cc(NC(=O)c2ccc(Cl)cc2Cl)n(CCC#N)n1	-92.9	139.1	i	0.93	x	1.6	103.1
O=C(c1cccc(NS(=O)(=O)c2ccc(F)c(F)c2)c1)N1CCN(Cc2ccccc2)CC1	-48.1	179.8	i	1	1.0	7.5	106.6
CCn1c(N)[n+](CC(=O)Nc2ccc(SC(F)F)cc2)c2ccccc21	x	x	i	0.8	x	x	84.3
Cn1cnnc1SCC(=O)Nc1ncc(C(F)(F)F)cc1Cl	x	x	i	0.95	x	9.0	99.7
O=C(/C=N/O)NCCN1CCCCC1	-7.1	39.7	i	0.85	-2.1	-1.4	103.9
CC(=O)NC(=S)Nc1ccc(NC(=O)COc2ccc(Cl)cc2Cl)cc1	x	x	i	0.88	-4.0	-4.1	100.0
Cc1nn(C)c(Cl)c1/C=C/C(=O)O	x	x	i	0.95	x	-4.7	104.2
Oc1ccc(NC(=S)Nc2ccccc2)cc1	23.3	100.0	i	0.86&1.11	-0.3	-9.5	98.8&95.0
O=C(c1ccccc1-c1nc2ccccc2[nH]1)N1CCOCC1	x	x	i	1.04	-1.4	3.6	100.1
CN(C)CC(=O)Nc1ccc(Oc2ccc(Cl)cc2)cc1	-54.5	122.3	i	0.92	x	-7.0	101.1
O=C(NC1CC1)C1=C[C@@H](c2ccc(Br)cc2)C[C@@H](OCc2ccc(CO)cc2)O1	x	x	i	0.79	x	x	108.8
Cc1nc(S/C(=C/c2ccc(-c3ccc(Cl)cc3)o2)C(=O)O)n[nH]1	-5.4	89.9	i	0.98	-1.6	-9.7	103.6
COc1ccccc1NC(=O)NCC(=O)Nc1ccc(F)c(F)c1	14.3	127.8	i	0.933	-1.4	-5.3	100.5
O=C1NC2=C(C(=O)OC2)C(c2ccc(OC(F)(F)F)cc2)N1 (stereo not drawn)	x	x	i	0.95	x	x	101.3
CC(C)Sc1nc(SCC(=O)NCc2ccco2)c2c3c(sc2n1)COC(C)(C)C3	x	x	i	0.94	-1.1	-3.7	83.5
O=C1CC(c2ccc(OCCCCCOc3ccc(C4CC(=O)NC4=O)cc3)cc2)C(=O)N1 (stereo not drawn)	7.1	96.1	i	1	x	-3.8	109.1
COc1ccccc1CNC(=O)CCn1c(=O)sc2ccccc21	5.9	118.0	i	0.79	-2.1	-5.0	103.1
COCCCn1cc(C(=O)c2cc(OC)ccc2OCC(=O)N2CCCCC2C)cc(C#N)c1=O (stereo not drawn)	-5.6	130.3	i	0.96	x	-6.7	104.7
CC1(C)CC(=O)c2cc(OCC(=O)NCCN3CCCc4ccccc43)ccc2O1	29.0	53.2	i	1.05	-2.4	-8.7	102.4
COc1ccc(S(=O)(=O)Nc2cccc(C)n2)c2ccccc12	23.1	120.2	i	0.81	-1.7	-3.7	76.2
COC(=O)N1CN(C(=O)OC)CN(C(=O)OC)C1	-53.3	97.1	i	0.93	-2.6	-19.2	98.8
O=C(N=Nc1c(O)[nH]c2ccc(Cl)cc12)c1cc(-c2cccs2)nc2ccccc12	5.4	114.0	i	0.48	-0.1	8.7	103.3
O=C(c1ccco1)N1CCN(C(=O)C2CCCO2)CC1 (stereo not drawn)	-125.0	103.9	i	0.93	-0.2	-17.4	104.9
CC(C)(C)C(=O)Nc1ccc(F)cc1[N+](=O)[O-]	x	x	i	1.01	x	x	95.7
COCc1cc(OC)nc(-c2csc(C)n2)n1	x	x	i	1.1	x	x	102.0
O=C(COC(=O)c1sc2cc(F)ccc2c1Cl)Nc1ncc(Cl)cc1Cl	x	x	i	1.09	-1.6	-3.0	99.1
COc1ccc(CCNC(=O)c2ccn[nH]2)cc1OC	37.5	107.8	i	1	-2.1	3.5	106.4
CN1CCN(C(=O)Cn2c(=O)oc3cc(S(=O)(=O)NCc4ccccc4)ccc32)CC1	x	x	i	1.09	-0.2	-3.8	98.2
O=C(Nc1cc(S(=O)(=O)N2CCCC2)ccc1OCC(F)(F)F)c1ccccc1F	27.8	116.5	i	0.83	-1.1	-7.6	119.3
N#CC1=C(SCC(N)=O)NC(=O)CC1c1ccccc1Cl (stereo not drawn)	x	x	i	0.9	-3.6	9.2	99.6
CCOc1[nH]n(-c2ccc(Cl)cc2)c(=O)c1C=Nc1ccc(O)cc1	-33.3	97.5	i	0.68	-0.9	-2.0	97.1
COc1ccc(C(=O)NC(=S)Nc2ccc(CN3CCOCC3)cc2)cc1	x	x	i	0.73	x	x	100.5
CC(CNC(=O)c1cncc(O)c1)NC(=O)c1cncc(O)c1 (stereo not drawn)	x	x	i	0.97	0.8	-2.4	105.0
CCOc1ccc(NC(=O)COc2ccccc2)c([N+](=O)[O-])c1	19.1	88.1	i	0.97	x	-2.8	103.2
COc1c(S(=O)(=O)NCCCN2CCOCC2)ccc(Cl)c1Cl	x	x	i	0.88	x	x	98.5
COc1ccc(-c2nnc(SCC(=O)Nc3nc4ccccc4s3)n2C)cc1	x	x	x	x	-0.2	-4.5	105.0
COc1ccc(NC(=O)Nc2cccc(NC(C)=O)c2)c(OC)c1	x	x	i	1.06	x	-3.5	99.1
Cc1nc(SCC(=O)Nc2c(C)nn(C)c2C)c2cnn(-c3ccccc3)c2n1	-22.9	291.0	i	1.07	-1.3	1.3	104.2
CCC(C)OC(=O)C1=C(C)OC23OC(N)=C(C#N)C12C(=O)c1ccccc13 (stereo not drawn)	-193.8	66.8	i	0.93	-0.7	9.1	117.3
CCCCCCn1cc(C(=O)O)c(=O)c2ccccc21	0.0	68.6	i	1.01	-0.6	-2.3	101.7
CCN1CCN(c2ccc(NC(=O)Cc3ccccc3)cc2)CC1	0.0	102.1	i	0.88	-0.8	-14.3	113.2
CCc1ccc2c(c1)cc(CN(C(=S)Nc1cccc(C)c1)C1CC1)c1nnnn12	33.3	93.2	i	0.71	-2.4	-4.2	97.6
COc1ccc(CN2CC(=O)N(c3ccc(C)c(C)c3)C2=S)cc1OC	-91.7	71.8	i	1.05	x	-8.2	139.4
O=C(C1CC1)N1N=C2CCCCC2C1(O)C(F)(F)F (stereo not drawn)	22.2	126.4	i	0.91	x	-4.2	101.5
COc1ccc(C(=O)C2CCCN(Cc3cccn3-c3ccccn3)C2)cc1F (stereo not drawn)	x	x	i	0.97	x	-2.1	109.8
COc1ccc(NC(=O)CC2C(=O)N(Cc3cccs3)C(=S)N2C(C)C)cc1 (stereo not drawn)	-58.8	88.2	i	0.91	x	-10.7	99.2
COc1ccc(CN2C(=O)/C(=C/c3ccc(-c4ccc(Cl)c(C(=O)O)c4)o3)SC2=S)cc1	0.0	138.1	u	x	x	2.1	98.5
c1ccc(Cn2ncc3c(N4CCOCC4)ncnc32)cc1	44.2	120.2	i	0.85	-1.7	-7.2	103.7
Cc1ccc(S(=O)(=O)Nc2ccc(NC(=O)c3cccnc3)cc2)cc1	x	x	i	0.89	x	-0.8	104.0
C/C=C/C(=O)OCC(=O)Nc1ccc(OC)c(OC)c1	x	x	i	1.05	x	-5.4	97.8
CN(/N=C/c1cccs1)c1cc(=O)n(C)c(=O)[nH]1	62.1	127.1	i	0.87	-1.1	-0.9	29.7
O=[N+]([O-])c1cccnc1Sc1n[nH]c(-c2ccc(Cl)cc2)n1	x	x	i	1	x	x	102.4
O=C(NCc1ccccn1)/C(=C/c1ccco1)NC(=O)c1ccccc1	-50.0	86.4	i	1.11	-1.4	-0.4	103.5

(next part)
SMILES	INS promoter inh	INS promoter inh cell count	HSV replic up	HSV replic up primary fold	GALR2 ag	PKD1 kinase inh	RGS16-Gao HTS
O=C(COC(=O)/C=C/c1ccc(Cl)cc1Cl)Nc1cc(C(F)(F)F)ccc1N1CCOCC1	23.1	53.8	i	1.03	-2.0	9.0	87.8
CCOc1ccc(-n2c(=S)sc3c(=O)[nH]c(SCC(=O)NCc4ccco4)nc32)cc1	42.9	77.1	i	1.13	-2.0	0.1	101.5
CCC(C)NC(=O)CN1C(=O)NC2NC(=O)NC21 (stereo not drawn)	x	x	i	0.94	x	x	101.2
O=C(Cc1cccc(C(F)(F)F)c1)Nc1ccccc1	x	x	i	0.89	x	-1.9	99.2
CC1(C)CC(=O)C(C=NCC(O)c2ccccc2)=C(O)C1 (stereo not drawn)	x	x	i	0.88	-0.3	-7.6	103.3
CCOC(=O)C(=O)N1CCN(c2cc3c(cc2[N+](=O)[O-])n(C)c(=O)n3C)CC1	x	x	i	0.94	x	-4.6	98.1
c1ccc(OCCOCCN2CCOCC2)cc1	-54.8	202.6	i	1	-2.6	-0.7	106.9
COc1cc(-c2nnc(CSc3nnc(Nc4ccc(Oc5ccccc5)cc4)s3)o2)cc(OC)c1OC	x	x	i	1.22	-0.1	1.1	83.4
Cc1c(N=Cc2cccs2)c(=O)n(-c2ccccc2)n1C	-36.4	129.7	i	1.03	-0.9	2.1	93.7
COc1cccc(C(=O)Nc2cc(=O)n(C)c(=O)n2C)c1OC	x	x	i	0.87	-2.5	-3.0	99.3
CCOC(=O)c1ccccc1NC(=O)c1ccc(Cl)c(S(=O)(=O)N2CCOCC2)c1	6.8	123.7	x	x	-2.3	-0.8	x
N=C(N)Cc1ccccc1Sc1ccccc1	15.4	129.1	i	0.86	-0.7	-6.1	106.7
c1ccc2c(CSCc3nc4ccccc4[nH]3)cccc2c1	-30.8	68.3	i	0.83	-0.8	-1.2	110.3
Cc1nc2ccccc2c2nc(NC(=O)Cc3ccccc3)nn12	-37.8	97.2	i	0.93	-1.2	-6.8	97.8
CC(=O)c1cccc(NC(=O)C2CCCN2S(=O)(=O)c2cccc3cccnc23)c1 (stereo not drawn)	x	x	i	1.14	-1.3	5.6	102.6
Cc1noc(C)c1COc1ccc(C(=O)OCC(=O)OC(C)(C)C)cc1	x	x	i	1.01	x	16.4	101.2
CCN1CCN(C(c2ccccc2)c2nnnn2CCc2ccc(OC)c(OC)c2)CC1 (stereo not drawn)	12.9	105.3	i	0.97	-0.5	-5.1	98.6
O=C(Nc1ccc(Cl)cc1)NC1CCS(=O)(=O)C1 (stereo not drawn)	x	x	i	0.99	-0.2	-8.5	179.9
COC(=O)c1ccc(OC)c(CSc2nnc(COc3ccc(OC)cc3)o2)c1	22.2	107.0	i	1.1	-1.3	2.6	107.5
COc1ccc(N2CCN(C(=O)c3ccc(Br)cc3)CC2)c([N+](=O)[O-])c1	x	x	i	0.92	x	-4.9	100.5
COc1ccccc1NC(=S)NC(NC(C)=O)C(Cl)(Cl)Cl (stereo not drawn)	x	x	i	0.7	x	x	95.8
Cc1nc([N+](=O)[O-])cn1CC(=O)c1ccccc1	x	x	i	1.13	x	x	104.9
CC1Cc2ccccc2N1C(=O)CN(C)S(=O)(=O)c1cccc2cccnc12 (stereo not drawn)	x	x	i	0.93	-2.9	-3.7	102.4

Entries of single compounds, looked up by structure:
Entry for Cc1nc([N+](=O)[O-])cn1CC(=O)c1ccccc1 → INS promoter inh: x; INS promoter inh cell count: x; HSV replic up: i; HSV replic up primary fold: 1.13; GALR2 ag: x; PKD1 kinase inh: x; RGS16-Gao HTS: 104.9
Entry for Cc1nc2ccccc2c2nc(NC(=O)Cc3ccccc3)nn12 → INS promoter inh: -37.8; INS promoter inh cell count: 97.2; HSV replic up: i; HSV replic up primary fold: 0.93; GALR2 ag: -1.2; PKD1 kinase inh: -6.8; RGS16-Gao HTS: 97.8

High-throughput results from PubChem.
